HSV augment = increases HSV replication in cells; 220,000 tested, 0.005% active; maximum fold increase; AID 1956; HSV replication augmentation in cells, fold increase;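 active means peak rise of 1.5-fold or more in the series; tested in PC3 cells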;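 further: first round at 10 µM; read as green reporter fluorescence; hits show the peak of a series up to 25 µM; 1 = signal of infected wells without compound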
INS promoter inh = TRM-6 insulin promoter activity inhibition. TRM-6 cells (human fetal islet line), insulin promoter-eGFP reporter, imaging; reporter expression induced with tamoxifen. inhibition, % at 2 µM. 130,000 tested, 0.9% active;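 active means inhibition above the mean plus 3 SD, with well images judged a real hit on visual review, cut at about 60% in these data, passing the limit was not always enough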
GALR2 ag = activates the human galanin receptor 2 | O43603 | activation, %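 (tested at 5 µM)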 | GALR2-expressing cells, agonist activation read-out | 140,000 tested, 0.48% active;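 active means above mean plus 3 SD of all compounds, about 5% in these data, not always enough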;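 further: 0% = vehicle buffer wells and 100% = reference agonist at full effect; tested in CHO reporter cells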
Target sequence (O43603 whole entry, looked up): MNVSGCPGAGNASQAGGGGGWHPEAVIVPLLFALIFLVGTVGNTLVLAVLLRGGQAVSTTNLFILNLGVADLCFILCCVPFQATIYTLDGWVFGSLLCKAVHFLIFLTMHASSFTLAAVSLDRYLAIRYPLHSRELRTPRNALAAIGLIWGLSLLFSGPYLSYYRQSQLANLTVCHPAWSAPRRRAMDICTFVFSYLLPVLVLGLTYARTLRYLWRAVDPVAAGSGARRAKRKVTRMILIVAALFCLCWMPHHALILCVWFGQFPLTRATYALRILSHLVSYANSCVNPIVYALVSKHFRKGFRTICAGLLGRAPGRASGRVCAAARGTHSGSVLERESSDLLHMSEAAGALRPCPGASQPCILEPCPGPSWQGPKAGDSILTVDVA
RGS16-Gao HTS = modulates binding between human RGS16 and Galphao. bead-based flow cytometry RGS16-Galphao binding, fluorescence; actives lie on both sides. binding response (% of control), % at 10 µM. O15492+P09471. 220,000 tested, 0.38% active;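 active means below 25% or above 175%, edge rows of some plates excepted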;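 further: Galphao activated by GDP with aluminum fluoride before binding; 100% = wells without compound and 0% = beads without RGS; some results beyond the cut were filed as inactive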
Target sequence (O15492 whole entry, looked up): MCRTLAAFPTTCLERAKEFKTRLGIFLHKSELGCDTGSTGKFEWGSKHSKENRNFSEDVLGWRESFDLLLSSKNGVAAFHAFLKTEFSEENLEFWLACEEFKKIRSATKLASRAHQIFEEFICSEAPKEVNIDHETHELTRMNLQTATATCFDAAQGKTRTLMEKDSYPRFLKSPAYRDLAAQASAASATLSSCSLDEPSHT
Target sequence (P09471 whole entry, looked up): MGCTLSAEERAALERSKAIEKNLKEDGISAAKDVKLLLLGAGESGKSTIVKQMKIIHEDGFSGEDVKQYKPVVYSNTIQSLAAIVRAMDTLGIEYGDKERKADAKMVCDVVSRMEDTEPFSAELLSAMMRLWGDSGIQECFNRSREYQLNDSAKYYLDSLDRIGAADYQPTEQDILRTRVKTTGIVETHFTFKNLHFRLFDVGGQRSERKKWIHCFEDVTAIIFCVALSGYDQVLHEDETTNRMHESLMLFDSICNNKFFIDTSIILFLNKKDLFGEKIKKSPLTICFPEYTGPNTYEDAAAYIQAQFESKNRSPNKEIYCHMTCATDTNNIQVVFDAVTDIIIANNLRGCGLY
PKD1 kinase inh = PKD1 (human) kinase inhibition; Q15139; PKD1 kinase fluorescence polarization assay; inhibition, %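 (about 10 µM by stock and volumes)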; 200,000 tested, 0.056% active;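 active means inhibition of 50% or more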;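 further: controls were vehicle for no effect and a reference inhibitor for full effect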
INS promoter inh cell count = second read-out of INS promoter inh, no call of its own (marks repeat the call); normalized cell count, %; measured here: cell count, toxicity; reference of the scale not given here;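 cells exposed to compound for 48 h; stained nuclei by imaging scaled within each plate; lower means fewer cells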
HSV augment primary fold = second read-out of HSV augment, no call of its own (marks repeat the call); fold increase; compound at 10 µM; measured here: primary screen fold increase 10 uM; tested in PC3 cells;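 GFP signal in the first replicate; 1 = infected wells without compound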
An asterisk follows results filed as active; i = inactive; . = no result given.

SMILES	HSV augment	HSV augment primary fold	INS promoter inh	INS promoter inh cell count	GALR2 ag	RGS16-Gao HTS	PKD1 kinase inh
COC(=O)C1=C(C)N(C)C(C)=C(C(=O)OC)C1c1ccc(F)c(Br)c1	i	1	0	125	-3.1	110	1
COc1cc(C(=O)Nc2ccc(-n3cnnn3)c(C)c2)cc(OC)c1OC	i	0.89	28	104	-3.5	24*	-2
CCOC(=O)N1CCN(C(=O)CN(c2cccc(OC)c2)S(C)(=O)=O)CC1	i	0.82	41	110	-0.3	93	2
S=C(NCc1cccnc1)Nc1cc(Cl)cc(Cl)c1	i	1	.	.	.	100	.
O=C(CCSCCc1ccccn1)Nc1ccccn1	i	0.89	.	.	-1.2	72	-3
Cc1ccnc2ccc(-c3nc4ccccc4o3)cc12	i	0.97	.	.	-1.7	92	-9
Cc1occc1C(=O)N/N=C/c1ccccn1	i	1	7	92	.	108	5
CCCN(CCC)C(=O)c1ccccc1C(=O)N(CCC)CCC	i	0.86	.	.	-2.2	105	-5
COC(=O)c1cc(NC(=O)c2ccccc2F)cc(C(=O)OC)c1	i	1.1	41	42	.	112	-4
CCOC(=O)c1ccc(NC(=O)Nc2ccc3c4c(cccc24)C(=O)N3CC)cc1	i	0.93	36	109	0.0	97	7
COc1ccc(NC(=S)NCc2ccco2)cc1	.	.	.	.	-2.3	102	-4
O=C1CCC/C(=N\NC(=O)c2ccc(COc3cccc4cccnc34)cc2)C1	i	1	-57	79	-0.4	94	-12
CC(Sc1nncs1)C(=O)NCC(=O)Nc1ccc(F)c(F)c1F (centres undefined)	i	0.92	.	.	.	108	0
COc1ccc(C(=O)CSc2nnc(CN3CCCCC3)n2-c2ccc(F)cc2)cc1	i	0.9	14	106	-0.8	85	-7
CNS(=O)(=O)c1cccc(C(=O)NCC2(N3CCOCC3)CCCCC2)c1	i	0.87	.	.	.	102	1
Cc1cccc(OCC(=O)NC(Cc2ccccc2)C(=O)O)c1 (centres undefined)	i	0.99	29	133	-2.1	106	-3
CC(=O)N1CCC(=O)N(C(C)C)c2ccccc21	i	0.94	-43	51	-0.5	101	-5
COc1c(Cl)cnn(-c2ccc(C)cc2)c1=O	i	0.98	-57	57	-3.0	99	12
CCOC(=O)C(CC)Sc1ncnc2nc[nH]c12 (centres undefined)	i	0.97	3	107	0.4	106	-5
Cc1ccc(S(=O)(=O)Cn2nnnc2C(c2ccccn2)N2CCN(c3ccccc3)CC2)cc1 (centres undefined)	i	0.99	.	.	-0.7	108	-9
C=CCC(Nc1ccccc1)c1ccc(OC)c(OC)c1 (centres undefined)	i	0.99	.	.	.	115	.
COc1ccc(N2CCN(C(=O)CCC(=O)c3cc(C)sc3C)CC2)cc1	i	1	.	.	.	96	7
CCCOc1ccc(C(=O)N2CCN(c3ccc(NC(=O)CC)cc3Cl)CC2)cc1	i	0.81	33	130	-1.5	80	3
O=C(O)CCSCc1ccccc1F	i	0.96	12	104	-0.9	99	-9
COC(=O)c1ccc(OCC(=O)c2cccc(OC)c2)cc1	i	0.99	3	111	-0.8	104	3

Sorted by value in PKD1 kinase inh (high to low): some entries from above.
SMILES,PKD1 kinase inh
CCOC(=O)N1CCN(C(=O)CN(c2cccc(OC)c2)S(C)(=O)=O)CC1,2
COC(=O)C1=C(C)N(C)C(C)=C(C(=O)OC)C1c1ccc(F)c(Br)c1,1
CC(Sc1nncs1)C(=O)NCC(=O)Nc1ccc(F)c(F)c1F (centres undefined),0

Returning to the listing with the 2 entries that preceded the break.
SMILES	HSV augment	HSV augment primary fold	INS promoter inh	INS promoter inh cell count	GALR2 ag	RGS16-Gao HTS	PKD1 kinase inh
O=C(O)CCSCc1ccccc1F	i	0.96	12	104	-0.9	99	-9
COC(=O)c1ccc(OCC(=O)c2cccc(OC)c2)cc1	i	0.99	3	111	-0.8	104	3
COC(=O)c1c(NC(=O)COC(=O)[C@@H](NS(=O)(=O)c2ccc(C)cc2)C(C)C)sc2c1CCC2	i	0.88	-61	132	-0.1	100	-9
NC(=O)c1ccsc1NC(=O)c1ccc(S(=O)(=O)N2CCCc3ccccc32)cc1	.	.	-120	49	0.8	77	-3
Cc1nc2sccc2c(=O)n1N	i	0.92	-17	110	.	100	5
Cc1[nH]c(=O)c(C#N)c(C)c1Cc1ccc(Cl)cc1Cl	i	0.83	.	.	.	103	3
CN(CC(=O)NC1CCCCC1)S(=O)(=O)c1ccc(Cl)cc1	i	1	0	138	-0.3	83	-15
CCO[C@H]1OC(C(=O)N2CCN(Cc3ccccc3)CC2)=C[C@@H](C)[C@@H]1CCCO	i	0.89	.	.	.	97	3
Cc1ccnc(N(C(=O)c2cccs2)C(=O)c2cccs2)c1	i	0.95	-84	184	-1.5	111	-9
Fc1ccc(NC(=S)NN2CCOCC2)cc1Cl	i	1	-6	105	-0.4	103	-8
COc1ccccc1NC(=O)Cn1nc(-c2ccncc2)nc1SCC(=O)NC1CCCC1	i	0.77	-50	107	.	98	-1
O=C(c1ccco1)N1CCN(CC2CC3C=CC2C3)CC1 (centres undefined)	i	0.93	-24	66	-3.3	93	-6
CCOC(=O)c1ccc(N2C(=O)CC(C)(CC)CC2=O)cc1	i	1	.	.	.	102	.
CCCCNC(=O)C1CC(c2ccc(C(F)(F)F)cc2)=NO1 (centres undefined)	i	0.99	.	.	.	89	.
O=C(O)CCSc1nnc(COc2ccc([N+](=O)[O-])cc2)n1-c1ccccc1	i	0.63	0	145	.	102	-7
Cc1ccc(N=Cc2c(C)[nH]n(-c3nc4ccccc4[nH]3)c2=O)cc1	i	1	3	149	-0.9	99	2
O=C(c1ccccc1)N1CCCCCC1	i	1	22	107	-2.2	101	-8
CCOC(=O)C1CCCN(c2c(NCc3ccco3)c(=O)c2=O)C1 (centres undefined)	i	0.85	.	.	-0.9	105	-6
Cc1ccccc1-c1nc(CS(=O)(=O)CC(=O)N(C)C2CCCCC2)c(C)o1	i	1.2	.	.	-0.1	96	-1
N#C/C(=C\c1cccc(Cl)c1)c1n[nH]c(Cn2cncn2)n1	i	0.99	.	.	-1.9	98	-10
CCN1CCN(CC(O)COCc2cc(OC)c(OC)c(OC)c2)CC1 (centres undefined)	i	1.1	-41	101	.	102	-4
O=C(Nc1cnc2ccccn2c1=O)c1ccc(F)cc1	i	0.95	-37	102	0.3	134	-2
COc1ccc(C2NC(=O)NC(C)=C2C(C)=O)cc1 (centres undefined)	i	0.91	-49	113	-1.9	104	3
O=C(N1CCN(CCO)CC1)N1c2ccccc2CCc2ccccc21	i	1	.	.	.	97	.
CCC(=O)NCCc1nc2cc(NC(=O)c3ccc(OC)cc3)ccc2n1C	i	0.92	-108	150	-1.9	98	-1
CC(C)c1cc(C(=O)NCc2ccco2)no1	i	0.91	.	.	-1.3	91	-10
CC(=O)c1ccc(N2CCN(S(=O)(=O)c3c(C)[nH]c(=O)[nH]c3=O)CC2)cc1	i	0.96	.	.	.	108	-8

4 entries from above, sorted by heavy-atom count, low to high.
SMILES	HSV augment	HSV augment primary fold	INS promoter inh	INS promoter inh cell count	GALR2 ag	RGS16-Gao HTS	PKD1 kinase inh
O=C(Nc1cnc2ccccn2c1=O)c1ccc(F)cc1	i	0.95	-37	102	0.3	134	-2
COC(=O)C1=C(C)N(C)C(C)=C(C(=O)OC)C1c1ccc(F)c(Br)c1	i	1	0	125	-3.1	110	1
CCC(=O)NCCc1nc2cc(NC(=O)c3ccc(OC)cc3)ccc2n1C	i	0.92	-108	150	-1.9	98	-1
COc1ccc(C(=O)CSc2nnc(CN3CCCCC3)n2-c2ccc(F)cc2)cc1	i	0.9	14	106	-0.8	85	-7

Next part:
SMILES	HSV augment	HSV augment primary fold	INS promoter inh	INS promoter inh cell count	GALR2 ag	RGS16-Gao HTS	PKD1 kinase inh
CCOC(=O)Nc1ccccc1N1C(=O)c2ccccc2C1=O	i	1.1	.	.	-1.3	100	-21
Cn1cc(Br)c(C(=O)NN2C(=O)C3C(C2=O)C2C=CC3C23CC3)n1 (centres undefined)	i	1	.	.	.	106	-7
OCCC1CN(Cc2cnc(-c3ccc(Cl)cc3)nc2)CCN1C1CCCCC1 (centres undefined)	i	0.68	.	.	.	109	-6
CCc1ccc(C(=O)NCC2COc3ccccc3O2)o1 (centres undefined)	i	0.74	.	.	-1.0	102	2
CC(=O)c1ccc(OCCCC(=O)NC2CCCc3ccccc32)cc1 (centres undefined)	i	1.1	-9	107	-0.7	102	3
CCOC(=O)c1sc(N)nc1C(C)C	i	1.2	.	.	0.4	99	4
COc1cccc(CN(C)C(=O)c2csc3c2CCCC3)c1OC	i	1	.	.	.	100	-3
Cc1csc2c(=O)sc(NC(=O)c3cccs3)nc12	i	1.1	.	.	.	98	.
CN(C)c1cc[n+](CC(=O)N2c3ccccc3Sc3ccccc32)cc1	i	0.75	.	.	.	106	-5
O=C(NCC(c1ccco1)N1CCN(c2ccccc2)CC1)c1ccc2c(c1)OCO2 (centres undefined)	i	0.97	44	107	.	94	-4
Cc1cc(CC(C)C)n(-c2nc3ccccc3c(=O)n2OCC(N)=O)n1	i	0.6	0	87	0.2	107	1
COCn1c(-c2cccc(Br)c2)nc2ccccc21	i	1.1	.	.	-2.7	99	-12
CCOC(=O)NC1(C(F)(F)F)C(=O)N(Cc2ccccc2)C2=C1C(=O)CC(C)(C)C2 (centres undefined)	i	0.77	3	91	-1.1	104	1
COC(=O)c1ccc(OCCN2C3=NCCN3c3ccccc32)cc1	i	0.86	.	.	-0.6	105	-4
Nc1c(Cl)ncnc1N1CCN(c2ncnc(Cl)c2N)CC1	i	1	17	131	-0.7	108	-3
COc1ccc2[nH]c(=O)c(C(c3nnnn3C3CCCC3)N3CCN(Cc4ccc5c(c4)OCO5)CC3)cc2c1 (centres undefined)	i	0.89	25	120	0.2	105	-14
CCOC(=O)CSc1ncnc2c1cnn2-c1ccc(C)cc1C	i	0.95	11	92	.	108	-8
Cc1c(Br)c([N+](=O)[O-])nn1CC(=O)NCc1ccccn1	i	0.99	26	74	-1.8	100	-9
Cc1nc2ccc(N)cc2c(=O)n1Cc1ccc(Cl)cc1	i	1	.	.	-0.4	99	0
O=C(N/N=C\c1ccc(-c2ccccc2[N+](=O)[O-])o1)C1COc2cc3ccccc3cc2O1 (centres undefined)	i	0.95	-23	85	-2.1	103	-1
Cc1ccc(C(=O)OCC(=O)NC(=O)c2cccn2C)cc1[N+](=O)[O-]	i	0.95	.	.	.	97	.
CCOc1cc(-c2ccccc2)nc(N)n1	i	0.92	.	.	0.1	99	8

Results in RGS16-Gao HTS, HSV augment primary fold and INS promoter inh cell count, for some of the entries so far:
| Molecule | RGS16-Gao HTS | HSV augment primary fold | INS promoter inh cell count |
| --- | --- | --- | --- |
| COc1cccc(CN(C)C(=O)c2csc3c2CCCC3)c1OC | 100 | 1 | . |
| CC(=O)c1ccc(OCCCC(=O)NC2CCCc3ccccc32)cc1 (centres undefined) | 102 | 1.1 | 107 |
| OCCC1CN(Cc2cnc(-c3ccc(Cl)cc3)nc2)CCN1C1CCCCC1 (centres undefined) | 109 | 0.68 | . |
| CCc1ccc(C(=O)NCC2COc3ccccc3O2)o1 (centres undefined) | 102 | 0.74 | . |

High-throughput results deposited in PubChem BioAssay by several laboratories.
